Source: PubChem (ICCB-Longwood Screening Facility, Harvard Medical School)
Bm FixLJ act: activators of Burkholderia fixLJ two-component system, primary screen, B. multivorans, GFP reporter; z-score (no concentration beside the values); 29,000 tested, 0.3% active; AID 1918990, 2023; B. multivorans fixK-promoter GFP reporter, 18 h; hits give high values;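 active = replicate mean overnight rise in green fluorescent reporter signal, 3 or more SD over negative controls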;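 note: score is relative to vehicle wells of the plate; 300 nL library stock went into each well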
* marks the source's active call; other numbers are inactive results.

SMILES	Bm FixLJ act
CCOCCCNC(=O)Cn1nc(CC)n2c(cc3c(OC)cccc32)c1=O	0
CCS(=O)(=O)c1ncc(Cl)c(C(=O)Nc2ccccc2)n1	-0.7
Fc1cccc(CN2CCN(Cc3cnc(NCC4CCCO4)nc3)CC2)c1 (stereo not drawn)	-0.88
Cc1ccc(-c2nnc(Nc3ccc(Cl)c(Cl)c3)c3ccccc23)cc1S(=O)(=O)NCCO	1.4
CC(C)c1ccc(C2NC(=O)c3c(sc4c3CCN(C)C4)N2)cc1 (stereo not drawn)	-2
CCCC(N)C(=O)NCc1cccnc1N1CCN(C(C)=O)CC1 (stereo not drawn)	-3.5
CC(C(=O)N1CCC(c2[nH]ncc2-c2cccc(F)c2)CC1)N1CCCC1=O (stereo not drawn)	-0.1
O=C1C(c2ccc(C(F)(F)F)cc2)=C(Nc2ccc(Cl)cc2)c2ccccc21	2.2
Cc1cc(OC(C)C(=O)N(Cc2ccco2)Cc2ccco2)cc(C)c1Cl (stereo not drawn)	0.82
COc1cccc(N2CCN(c3ccc4nnc(CCC(=O)O)n4n3)CC2)c1	-0.86
COc1ccc2nc(NC(=O)c3cc(=O)c4ccccc4o3)sc2c1	-1.8
Cc1nn(-c2ccccc2)c(OC(=O)c2ccccc2Br)c1S(=O)(=O)c1ccccc1	-0.48
COC(=O)c1ccc([C@@H]2Nc3c(OC)ccc(C)c3[C@@H]3C=CC[C@@H]32)cc1	-0.83
CCn1c(C(=O)NCc2ccccc2Br)cc2oc3ccccc3c21	2.5
CN(C)C(=O)CCN(C)C(=O)C=Cc1cnc(N(C)C)nc1	0.67

In the list so far, these contain a furan ring, fused or not.
SMILES	Bm FixLJ act
Cc1cc(OC(C)C(=O)N(Cc2ccco2)Cc2ccco2)cc(C)c1Cl (stereo not drawn)	0.82
CCn1c(C(=O)NCc2ccccc2Br)cc2oc3ccccc3c21	2.5

Going on with the list.
SMILES	Bm FixLJ act
CN1Cc2c(N)cccc2C(c2ccccc2)C1 (stereo not drawn)	-1
COc1ccc(C2CC(=O)Nc3c2c(=O)n(C)c2nc4ccccc4n32)cc1 (stereo not drawn)	-1.1
Cc1nn(-c2ccccc2)c(OC(=O)C(C)C)c1Sc1ccc(Cl)cc1	-3.3
Cc1noc(C)c1CNC(=O)c1cccc(NC(=O)c2ccco2)c1C	-1.1
CC(C)c1nc(CCNC(=O)CCc2cccnc2)cs1	0.93
CN(C)S(=O)(=O)N1CC2CCC(C1)N(C(=O)c1ccccc1C#N)C2 (stereo not drawn)	0.47
COc1ccc(C(=O)NCCn2cc(SCC(=O)Nc3ccccc3)c3ccccc32)cc1OC	-0.49
CCOc1ccc2c(c1)c(=O)c(S(=O)(=O)c1ccccc1)cn2CC(=O)Nc1ccccc1OC	-1.9
CC(c1ccncn1)N(C)C(=O)C=Cc1cc(CO)cs1 (stereo not drawn)	0.32
Cc1ccc(C)c(NC(=O)CN(C)S(=O)(=O)c2cccc3cccnc23)c1	-1.5
Cc1ccc(CNC(=O)c2c[nH]n3c(=O)c(Cc4ccc(Cl)cc4)c(C)nc23)cc1	-0.65
COc1ccc(CNC(=O)C2CCC(CNS(=O)(=O)c3cccs3)CC2)cc1 (stereo not drawn)	-1.6
Cc1ccccc1OCCCCn1c(-c2ccc(Cl)cc2)nc2ccccc2c1=O	0.1
COc1ccccc1N(CC(=O)Nc1ccc(C)c(Cl)c1)S(=O)(=O)c1ccc(C)cc1	0.81
Cc1c(NC(=O)NC(C)c2nc3c(s2)CCCC3)cnn1C (stereo not drawn)	-2.8

Quoted at random: 4 records from the list
SMILES	Bm FixLJ act
CC(C)c1nc(CCNC(=O)CCc2cccnc2)cs1	0.93
Cc1ccc(C)c(NC(=O)CN(C)S(=O)(=O)c2cccc3cccnc23)c1	-1.5
Cc1ccc(CNC(=O)c2c[nH]n3c(=O)c(Cc4ccc(Cl)cc4)c(C)nc23)cc1	-0.65
Cc1nn(-c2ccccc2)c(OC(=O)C(C)C)c1Sc1ccc(Cl)cc1	-3.3

Later entries:
SMILES	Bm FixLJ act
COCCn1c(=O)[nH]c2cc(C(=O)Nc3ccc(OC)cc3)ccc2c1=O	0.58
CC(=O)Nc1ccc(S(=O)(=O)NCc2cc(CC(C)C)no2)cc1	0.43
COc1ccc(NC(=O)Cn2c(=O)c3ccccc3n3nncc23)cc1Cl	-0.76
COc1ccc(C(=O)N(C)C2C[C@H]3CC(=O)N(C)C[C@@H]3C2)c(OC)c1OC (stereo partly drawn)	-2.8
Cc1nn(C(C)C)c(C)c1C(=O)N1CC(O)C(N2CCN(C)CC2)C1 (stereo not drawn)	-0.07
COc1cc(-c2nc3sccn3c2Nc2cccc(C)c2)ccc1O	-2.2
COc1cc(N2CCCC(Cc3nc4ccccc4[nH]3)C2)nc(N)n1 (stereo not drawn)	-1.6
CCc1nonc1NC(=O)c1oc2ccc(F)cc2c1C	-0.83
Cc1ccccc1NC(=O)Cn1c(=O)n(CC2CCC(C(=O)NCCc3ccccc3)CC2)c(=O)c2ccccc21 (stereo not drawn)	0.14
CCCOc1ccc(CN2C(=O)C(=O)c3cccc(C)c32)cc1	-1.8
COc1ccc(NC(=O)C(c2ccc(C)cc2)N(C)C(=O)Cc2cccs2)cc1 (stereo not drawn)	-2
CSCCC(N)C(=O)Nc1ccc(N2CCCC2)c2ncccc12 (stereo not drawn)	-0.53
CCC[C@]1(C(=O)O)CN(S(=O)(=O)c2ccc(C)c(Cl)c2)CCC1O (stereo partly drawn)	0.79
COc1cccc(CNC(=O)CSc2ncc(S(=O)(=O)c3ccc(Br)cc3)c(=O)[nH]2)c1	-0.76
CCc1nn(CC(=O)Nc2c(C)cccc2C)c(=O)c2cc3sccc3n12	-0.99
CC[C@H](C)[C@H]1O[C@]2(CC[C@@H]1C)C[C@@H]1C[C@@H](C/C=C(\C)[C@@H](O[C@H]3C[C@H](OC)[C@@H](O[C@H]4C[C@H](OC)[C@@H](O)[C@H](C)O4)[C@H](C)O3)[C@@H](C)/C=C/C=C3\CO[C@@H]4[C@H](O)C(C)=C[C@@H](C(=O)O1)[C@]34O)O2	-1.9
COc1ccccc1N1CCN(C(=O)c2cc3c(=O)oc4ccc(C)cc4c3s2)CC1	-0.28
COc1cccc(/C=C/c2nc(C#N)c(N3CCN(C)CC3)o2)c1	0.08
CCCc1cc(=O)n2[nH]c(NCc3ccccc3OC)nc2n1	-1.6
COCCN1CCC(N2CC(COc3ccc(F)cc3)OCC2=O)CC1 (stereo not drawn)	-0.73
Cc1cc(Br)cc2c(C(=O)OCC(=O)c3ccccc3)cc(-c3ccccc3)nc12	2.2
O=C(Nc1cccc(F)c1)C1CCCN(S(=O)(=O)c2cccc3cccnc23)C1 (stereo not drawn)	-0.72
COc1ccc2n[nH]c(CN3CCC(C(C)=O)(c4ccccc4)CC3)c2c1	-1.1
O=C1C2=C(Nc3ccccc3SC2c2c(F)cccc2Cl)c2ccccc21 (stereo not drawn)	-1.1
CCN(CC)S(=O)(=O)c1cc(-c2nnc(Nc3ccc(OC)c(C(N)=O)c3)c3ccccc23)ccc1C	1.5
COc1ccc(S(=O)(=O)N(CC(=O)Nc2ccccc2Br)Cc2ccccc2)cc1	1.7
COCCCn1c(=N)c(C(=O)NCc2cccnc2)cc2c(=O)n3cc(C)ccc3nc21	-1.8
CCC(C(=O)NCCc1nc(C(=O)O)cs1)n1cccn1 (stereo not drawn)	0.81
Cc1ccc(S(=O)(=O)c2nc(-c3ccccc3)oc2N2CCN(c3ccccc3)CC2)cc1	0.29
Cc1cc(C)cc(-n2c(SCC(=O)Nc3ccccc3)nc3c(oc4ccccc43)c2=O)c1	1.6
CCOc1ccc2nc(NC(=O)c3cc(=O)c4cc(C)cc(C)c4o3)sc2c1	-1.7
COc1ccc(N(Cc2ccccc2)C(=O)c2nc(SC)ncc2Cl)cc1	2.1
COC(=O)c1c(-c2ccc(Cl)cc2)noc1N1CCN(c2ccccc2F)CC1	-1.6
COc1ccc(C)cc1-n1c(SCC(=O)O)nnc1C1CCCN(C)C1 (stereo not drawn)	-1.2
CSc1ncc(Cl)c(C(=O)Nc2cc(C(F)(F)F)ccc2Cl)n1	-0.99
COc1cccc2c1C1(CCN(C(=O)c3cc(C(F)F)[nH]n3)CC1)OCC2	-1.4
OCC1CCN(c2cc(-c3ccc(F)cc3)nc3ccnn23)CC1	-0.66
Cc1nc(SCC(=O)NCc2ccccc2CN2CCCC2=O)n[nH]1	-0.32
O=C(CN1C(=O)CC(c2ccco2)Sc2ccccc21)Nc1ccc(C(F)(F)F)cc1 (stereo not drawn)	-0.57
Cc1cccc(NC(=O)N2CCN(C)c3ncccc32)c1C	-0.2
O=C(NCCc1ccccc1)c1ccc2c(c1)N(Cc1ccc(Cl)cc1)C(=O)CS2	2.1
CCc1ccc(NC(=O)N2CC=C(c3c[nH]c4ccccc34)CC2)cc1	-4
COc1cccc(NC(=O)c2sc3nc(C)c(C(=O)Nc4ccc(Cl)cc4)c(-c4ccc(Br)cc4)c3c2N)c1	-0.68
CC(C)N(C)CC(=O)NC1COCC1Cc1ccnc2ccccc12 (stereo not drawn)	-0.45
COc1cccc(C2CN(c3ncccc3C#N)C3C4CCN(CC4)C23)c1 (stereo not drawn)	-1.3
CC(C)C1CN(C(=O)CCc2cccnc2)CC1NC(=O)N(C)C (stereo not drawn)	-1.5
Cc1cc(OCC(=O)Nc2cnn(CCCC(=O)O)c2)ccc1Cl	-1.7
Cc1ccc(S(=O)(=O)c2cc3cc(C(=O)Nc4ccc(C)cc4C)ccc3oc2=O)cc1	-1.4
CCCCCCc1c(C)c2c(cc(C)c3c(C)c(C)oc32)oc1=O	-2.6
COc1ccccc1NC(=O)C1=C(C)Nc2nc(SCc3ccc(Cl)cc3)nn2C1c1ccccc1Cl (stereo not drawn)	-0.42
COCC(=O)N1CCC(C(=O)N2CC(C(=O)O)C(c3ccccc3)C2)CC1 (stereo not drawn)	0.01
CCn1c(=O)cc(OCC(=O)N2CCN(c3cccc(C)c3C)CC2)c2ccccc21	0.57
COc1ccc(C(=O)N2CC(CO)C(CN3CCOCC3)C2)cc1C (stereo not drawn)	0.92
CCOc1ccc(-n2nc(CO)c(C(=O)NCC(c3ccccc3)c3ccccc3)n2)cc1	0.79
CCOc1ccc(NC(=O)Cn2cc(C(=O)c3ccccc3)c(=O)c3cc4c(cc32)OCO4)cc1	-1.6
Cc1nc(C2CC(O)C2)cc(N(C)Cc2ccccc2-n2cccn2)n1 (stereo not drawn)	-0.09
COCc1cc(C)nc2c1C(=O)NC(c1ccc(NC(C)=O)cc1)N2Cc1ccccc1 (stereo not drawn)	-2.4
CCOC(=O)c1ccccc1NC(=O)Cn1c(=O)n(Cc2ccc(C(=O)NCc3ccc4c(c3)OCO4)cc2)c(=O)c2ccccc21	-1.1
Cc1noc(-c2ccnc(-c3cc(F)cc4cccnc34)c2)n1	0.64
CCCn1cnnc1CNC(=O)Nc1cccc(-n2nnnc2C)c1	-0.34

Some values from the entries so far.
Bm FixLJ act with COc1ccccc1NC(=O)C1=C(C)Nc2nc(SCc3ccc(Cl)cc3)nn2C1c1ccccc1Cl (stereo not drawn) → -0.42
Bm FixLJ act with Cc1noc(-c2ccnc(-c3cc(F)cc4cccnc34)c2)n1 → 0.64

(next part)
SMILES	Bm FixLJ act
O=C(NCc1ccc2nsnc2c1)N1CCCC1Cn1cccn1 (stereo not drawn)	-0.8
CC1CCC(Nc2nc3c(-c4ccc(Cl)cc4)nnn3c3ccccc23)CC1 (stereo not drawn)	-1.2
CC[C@@H](CO)NCCN[C@@H](CC)CO	-1.4
N#C/C(=C\c1ccccc1F)c1nc2ccccc2c(=O)[nH]1	-0.47
CC(=O)OCC(COC(C)=O)OC(C)=O	0.08
COc1ccc(C(=O)CC2(O)C(=O)N(Cc3ccccc3Cl)c3ccccc32)cc1 (stereo not drawn)	-2
Cc1cccc2[nH]c(CCNC(=O)N3CCC(c4nncn4C)CC3)nc12	-0.89
Cc1ccc(C#N)c(N2CCC3(CCC(=O)N(CCc4ccccn4)C3)CC2)n1	-0.02
CCOC(=O)Cn1c(=O)oc2cc(S(=O)(=O)Nc3cc(OC)cc(OC)c3)ccc21	0.06
CC(C)(C)SCCNC(=O)c1ccc(-c2ccc(F)c(C(N)=O)c2)cc1	-0.24
CCC(C)NC(=O)CCc1c(C)nc2c(c(C)nn2-c2ccc(C)cc2)c1C (stereo not drawn)	-1.9
COc1cc(Cl)c(C)cc1NC(=O)Cn1cc(S(=O)(=O)N2CCC(C)CC2)c2ccccc2c1=O	0.21
O=C(c1n[nH]c2c1CCC2)N1CC(O)C(Cc2ccnc3ccccc23)C1 (stereo not drawn)	-1.4
COc1cc(-c2nc3n(n2)C(c2ccc(F)cc2)C(C(N)=O)=C(C)N3)cc(OC)c1OC (stereo not drawn)	-0.97
Cc1ccc(NC(=O)c2sc3nc(-c4cccs4)ccc3c2N)cc1F	-4.9
O=C(CN1CCN(Cc2ccc(F)cc2)C1=O)NCc1ccccc1Cl	-1.6
CCn1cc(C(=O)N2CCN(c3cc(Cl)ccc3C)CC2)c2cc(OC)c(OC)cc2c1=O	-0.14
CCOC(=O)c1c(C)c(-c2ccccc2)n(CC(=O)Nc2cccc(C)c2C)c1C	-0.97
Cc1ccc(NC(=O)C2CCCN2S(=O)(=O)c2ccc3c(c2)n(C)c(=O)c(=O)n3C)cc1C (stereo not drawn)	1.2
CC(NC(=O)c1cnc(N)nc1-c1ccccc1)C1=CCCCC1 (stereo not drawn)	0.79
Cc1ccc(Cl)cc1N1CCN(C(=O)C2CCCN(Cc3nc(-c4cccc(Cl)c4)oc3C)C2)CC1 (stereo not drawn)	0.14

A section from further up:
SMILES	Bm FixLJ act
CCOC(=O)c1c(C)c(-c2ccccc2)n(CC(=O)Nc2cccc(C)c2C)c1C	-0.97
Cc1ccc(NC(=O)C2CCCN2S(=O)(=O)c2ccc3c(c2)n(C)c(=O)c(=O)n3C)cc1C (stereo not drawn)	1.2
CC(NC(=O)c1cnc(N)nc1-c1ccccc1)C1=CCCCC1 (stereo not drawn)	0.79
Cc1ccc(Cl)cc1N1CCN(C(=O)C2CCCN(Cc3nc(-c4cccc(Cl)c4)oc3C)C2)CC1 (stereo not drawn)	0.14

These rows are one share of the data; rates above refer to the full screens.
